TRPML1 inh – blocks the human TRPML1 channel | TRPML1-inducible cells, Ca2+ dye fluorescence, FDSS; active compounds read low; inhibition of EC80 agonist-evoked calcium signal | activity change, negative = inhibition, % (no concentration beside the values) | 390,000 tested, 0.02% active | Q9GZU1 | AID 624415; in the data active means activity change below about -50%; inconclusive means about -30% to -50%; inactive means above about -30%;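 note: stimulus is agonist 54-4 at its EC80 concentration; % is set by controls: 0 for no effect and ±100 for the full control effect; compound concentration not given in the record; the text of the record puts the active cut at -80%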
Target sequence (Q9GZU1 whole entry, looked up): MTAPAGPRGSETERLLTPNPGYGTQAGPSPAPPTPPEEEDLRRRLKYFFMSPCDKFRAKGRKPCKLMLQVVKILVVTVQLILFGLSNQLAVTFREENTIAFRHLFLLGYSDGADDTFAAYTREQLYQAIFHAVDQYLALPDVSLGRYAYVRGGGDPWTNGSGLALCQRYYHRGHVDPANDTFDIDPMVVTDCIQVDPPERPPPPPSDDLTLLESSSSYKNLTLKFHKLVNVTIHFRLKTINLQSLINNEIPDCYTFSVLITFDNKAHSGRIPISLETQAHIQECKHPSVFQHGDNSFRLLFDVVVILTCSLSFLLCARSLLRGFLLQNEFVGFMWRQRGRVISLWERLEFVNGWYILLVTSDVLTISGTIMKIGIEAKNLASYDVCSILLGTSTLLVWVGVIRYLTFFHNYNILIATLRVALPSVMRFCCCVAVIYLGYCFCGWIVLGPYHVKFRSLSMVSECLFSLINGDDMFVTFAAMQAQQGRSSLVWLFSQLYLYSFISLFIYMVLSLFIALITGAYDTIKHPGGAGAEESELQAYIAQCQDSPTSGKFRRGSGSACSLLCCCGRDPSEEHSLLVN
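Tet-induced TRPML1-DL cells loaded with Ca8 no-wash calcium dye were read kinetically on FDSS. Compound addition was followed by EC80 agonist 54-4 (4 uM final); inhibition was read over 110 s.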
D2 PAM – positive allosteric modulators of human D2 dopamine receptor; 360,000 tested, 0.23% active; potentiation, % (test concentration not listed); DiscoveRx D2 beta-arrestin cells, luminescence, 90 min; 100% = 57 uM dopamine signal; active = potentiation of 50% or more; inconclusive = 30% to 50%; inactive = 30% or less;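 note: compound concentration not given in the record; tested on top of an EC20 dose of dopamine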
Target sequence (P14416 whole entry, looked up): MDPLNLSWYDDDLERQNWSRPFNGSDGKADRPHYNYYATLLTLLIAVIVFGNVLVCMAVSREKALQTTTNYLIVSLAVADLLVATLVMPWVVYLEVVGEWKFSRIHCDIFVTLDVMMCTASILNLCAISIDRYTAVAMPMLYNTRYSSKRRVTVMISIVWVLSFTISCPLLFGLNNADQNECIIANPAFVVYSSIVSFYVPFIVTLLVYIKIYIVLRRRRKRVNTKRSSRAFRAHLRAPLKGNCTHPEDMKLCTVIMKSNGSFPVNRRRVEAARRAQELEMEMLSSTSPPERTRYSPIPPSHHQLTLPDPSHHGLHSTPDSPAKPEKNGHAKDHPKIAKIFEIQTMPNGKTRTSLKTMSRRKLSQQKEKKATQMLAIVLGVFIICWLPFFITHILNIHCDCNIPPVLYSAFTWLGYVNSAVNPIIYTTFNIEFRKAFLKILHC
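PathHunter beta-arrestin assay in DiscoveRx D2 cells. Compounds were added with an EC20 of dopamine (50 nM final) for 90 min at 37 deg C. Luminescence was read 1 h after detection reagent, with 57 uM dopamine as the EC100 control.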
TRPML1 agonist – human mucolipin-1 channel agonism. TRPML1-expressing cells, Ca2+ dye fluorescence, FDSS; host cell line not named in the record; reference of the full effect not given here. activation, % (test concentration not listed). 410,000 tested, 0.12% active. AID 624414; in the data active = activation above about 50%; inconclusive = about 30% to 50%; inactive = below about 30%; note: 0% is about no effect; the text of the record puts the active cut at 80%
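Kinetic FDSS Ca2+ read in Tet-induced TRPML1-DL cells (ABD Ca8 dye plus quencher, 45-90 min RT loading): baseline, then compound, then 110 s agonist window; EC80 agonist 54-4 at 4uM final added afterwards for a 110 s antagonist window.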
TRPV1 potentiator – human TRPV1 potentiation; Q8NER1; TRPV1-expressing cells, Fluo-8 calcium influx, capsaicin EC20 potentiation; host cell line not named in the record; control for the full effect not named in the record; potentiation, % at 8.33 µM; 320,000 tested, 0.02% active; active means potentiation above 80%; inconclusive means 30% to 80%; inactive means below 30%; note: 0% is about no effect
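TRPV1-expressing cells were cultured overnight at 35.5C and loaded with Fluo-8 calcium dye for 40 to 90 min at room temperature. After a 10 s baseline, compound was added and calcium influx was read kinetically for 3 min (ex 480/em 520 nm).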
Six1-Eya2 inh – blocks human Six1 binding to Eya2. Q15475+O00167. AlphaScreen GST-Six1/His-Eya2 binding, biochemical; active compounds read low; control for the full effect not named in the record. activity change, % (no concentration beside the values). 360,000 tested, 0.56% active; in the data active = activity change below about -65%; inconclusive = about -30% to -65%; inactive = above about -30%; note: % is set by controls: 0 for no effect and ±100 for the full control effect
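Six1/Eya2 binding was read as AlphaScreen signal after compounds were pinned into GST-Six1 plus His-tagged Eya2 (5X stock 250/500 nM) in pH 8.0 Tris/NaCl/TCEP buffer, beads added, then incubated 1 h, 37 C, dark.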
CtBP-E1A inh – blocks the CtBP interaction with E1A; AlphaScreen GST-E1A/His-CtBP binding, 1536-well; active compounds read low; control for the full effect not named in the record; activity change, % (concentration not given with the values); 340,000 tested, 0.49% active; AID 651724; in the data active means activity change below about -65%; inconclusive means about -30% to -65%; inactive means above about -30%; note: % is set by controls: 0 for no effect and ±100 for the full control effect
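GST-E1A and His-tagged CtBP (125 nM each as 5X stock) were preincubated with pin-transferred compound for 2 h at 37 °C in the dark, then glutathione donor and nickel acceptor beads were added for 1 h before AlphaScreen reading.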
Starred values were filed as active, the others as inactive; ? = inconclusive; . = not tested or not shown; & = joins results of further samples.

SMILES | TRPML1 inh | D2 PAM | TRPML1 agonist | TRPV1 potentiator | Six1-Eya2 inh | CtBP-E1A inh
O=C(O)[C@]1(S(=O)(=O)c2ccccc2)C[C@@H]2ON=C(c3cccc(Br)c3)[C@@H]2C1 | 1 | -15 | -0.3 | 6 | -3 | -6
Cc1ccc(C)c(NC(=O)C2CC(=O)N(C3CCCCC3)C2)c1 (stereo not given) | 15 | -10 | 0.5 | -10 | -4 | 0
COc1ccccc1NC(=O)COC(=O)c1ccccc1C(=O)N1CCN(c2ccccc2)CC1 | 6 | -3 | 4.2 | ? | -1 | -1
Cc1ccc(N(C(=O)C2CCC(=O)N2)C2(C(=O)NC3CCCC3)CCCCC2)cc1 (stereo not given) | 16 | -4 | -0.8 | -3 | 0 | 5
C#Cc1ccc([C@H]2C=C(C(=O)N3CCOCC3)O[C@@H](OCC)[C@@H]2CCCO)cc1 | -1 | -12 | 0.2 | -7 | 1 | 0
O=C(OCC12CC3CC(CC(C3)C1)C2)c1ccc(NCc2cc(O)ccc2O)cc1 | 6 | 55* | 0.6 | . | -15 | -5
CCOC(=O)c1c(NC(=O)COC(=O)c2nc(Cl)ccc2Cl)sc2c1CCC2 | -8 | -9 | -1.0 | -5 | 0 | -20
CCC(C(=O)OC)n1cnc2c(nnn2-c2ccc(F)cc2)c1=O (stereo not given) | 31 | -2 | -0.2 | 4 | 8 | -4
O=[N+]([O-])c1cccc(-c2nnc(-c3ccc4c(c3)OCO4)o2)c1 | 9 | -5 | -0.4 | -33 | -4 | 5
COc1ccc(NC(=O)CSc2nnc(Cc3cccs3)n2-c2ccc(C)cc2)cc1 | 12 | 5 | 1.8 | -6 | -6 | -8
CCN(CC)c1ccc(C(=O)NC(=S)N2CCN(Cc3ccc4c(c3)OCO4)CC2)cc1 | 27 | -5 | 2.2 | -25 | ? | ?
CC[C@H](C)[C@H](NC(=O)c1ccccc1)C(=O)Nc1ccc(S(=O)(=O)Nc2cc(C)nc(C)n2)cc1 | 1 | -11 | 0.6 | 10 | -5 | .
Cc1ccc(Cl)cc1NC(=O)C(NS(=O)(=O)c1cccs1)c1ccccc1 (stereo not given) | 17 | 1 | 3.2 | -3 | 10 | -2
CSc1cccc(NC(=O)CN(c2ccc(C)cc2C)S(C)(=O)=O)c1 | -13 | -1 | 2.8 | 6 | -5 | 2
Cc1cc(C)cc(CC(=O)N2CCC2(C)C(=O)NS(=O)(=O)c2ccc(Cl)s2)c1 (stereo not given) | . | -3 | -0.1 | . | 11 | -2
COc1ccc(C(=O)NNC(=O)CN2CCN(c3nc(-c4ccccc4)cs3)CC2)cc1 | -12 | 0 | 0.7 | 12 | 1 | 12
Cc1ccccc1-n1c(SCC(=O)NCC2CCCO2)nnc1-c1ccncc1 (stereo not given) | 13 | -3 | -0.4 | . | 0 | 0
Cc1nn(Cc2cccc(C(=O)NC34CC5CC(CC(C5)C3)C4)c2)c(C)c1Br | 60 | -19 | 4.0 | -24 | -3 | -1
O=S(=O)(ON(c1ccccc1)S(=O)(=O)c1ccccc1)c1ccccc1 | -19 | -11 | 1.5 | ? | 13 | -9
O=C(OCc1ccccc1)N1CCC2CC1c1ccc(N3CCN(Cc4ccc5c(c4)OCO5)CC3)cc12 (stereo not given) | . | -15 | 0.1 | . | ? | ?
O=S(=O)(c1ccccc1)N(Cc1nc(-c2ccccc2)no1)C1CCCCC1 | 87 | -1 | 5.4 | 2 | 26 | 37
CCOC(=O)c1ccc(NC(=O)CN2C(=O)CSC2=O)cc1 | -1 | -13 | 0.0 | 1 | 4 | 2
O=C(NC(=S)N1CCOCC1)c1cn(-c2ccccc2)nc1-c1ccccc1 | 0 | -3 | 2.4 | -2 | -3 | 0
COc1ccc(C(C(=O)NC2CCCC2)N(Cc2cccnc2)C(=O)c2snc(C(N)=O)c2N)cc1OC (stereo not given) | 19 | -4 | 1.5 | -3 | 5 | 7
Oc1ccc2oc3c(c2c1)CCCC3 | 8 | -29 | 0.2 | 18 | -6 | -1
CCOc1ccc(-c2cc(C(=O)NCc3ccccc3)[nH]n2)c(C)c1 | . | -10 | -0.7 | . | -1 | 1
O=C(NCCOc1ccc(F)cc1)C1CCC(=O)N(CCN2CCOCC2)C1 (stereo not given) | 10 | 9 | 0.5 | 4 | -5 | 26
CC1=CC(=C(C#N)c2nc3ccccc3s2)C=C(C)N1Cc1ccco1 | 3 | -14 | 8.1 | 1 | 11 | 24
COC(c1ccccc1)c1nnc(CCC(=O)N(C)CCCC2CCCC2)o1 (stereo not given) | 6 | -2 | -0.1 | -1 | 6 | 4
Cc1ccc(C)c(N2C(=O)c3cc(N4CCOCC4)c([N+](=O)[O-])cc3C2=O)c1 | -8 | 7 | 0.5 | 0 | 8 | -11
OC[C@@H]1CN(Cc2ccc(F)cc2)C[C@H](n2cnc3c(NCc4ccc(F)cc4)ncnc32)O1 | . | -20 | 0.5 | . | -9 | 0
CCCn1nc(Oc2nc(NCC)nc(NCC)n2)ccc1=O | 26 | -7 | -0.4 | 4 | 0 | 8
CCn1c(-c2ccco2)n[nH]c1=S | -14 | -9 | -1.0 | 5 | -2 | 3
O=C1[C@@H]2C(c3ccccc3Cl)=NO[C@@H]2C(=O)N1Cc1ccccc1 | -22 | 9 | 0.0 | -3 | 2 | 4
O=C(O)C1CCCN1C(=O)C12CC3CC(CC(C3)C1)C2 (stereo not given) | 6 | 1 | 0.2 | 19 | 3 | 6
Cc1ccc(NS(=O)(=O)c2ccc(CCC(=O)N3CCCC3)cc2)cc1 | 5 | -1 | 1.2 | -5 | 6 | .
CC(C)=CCC/C(C)=C/Cc1c(O)ccc(C(=O)/C=C/c2ccc(O)cc2)c1O | 2 | -12 | 0.1 | -11 | -7 | -5
COc1ccc(S(=O)(=O)N/N=C(/C)c2ccc(Cl)cc2)cc1 | 5 | -13 | 2.0 | -7 | -1 | 1
CCOc1ccccc1N(CC(=O)NC1CCCCC1)S(C)(=O)=O | 11 | -8 | -0.2 | 7 | 3 | -5
COc1ccccc1Cc1c(-c2ccc(C#N)cc2)nc2c(C)cc(Br)cn12 | -2 | -5 | 0.6 | . | 1 | 4
CCCCCCN1CCN(C2CN(Cc3cn(Cc4ccc(C)cc4)nn3)S(=O)(=O)C2)CC1 (stereo not given) | . | . | -1.2 | . | -2 | -4
C=CCn1c(SCC(=O)Nc2c(C)n(C)n(-c3ccccc3)c2=O)nc2sc(C)c(C)c2c1=O | -11 | 3 | 1.6 | 3 | 0 | 2
CCOC1=C2CN(S(=O)(=O)c3ccc(C)cc3)[C@@H](c3ccc(CC)cc3)C[C@H]2[C@H]2C(=O)N(c3ccccc3)C(=O)[C@H]2C1 | ? | -6 | 16 | . | -6 | -9
CC(=O)Nc1cccc(NC(C)=C(C#N)C#N)c1 | 26 | -15 | -0.2 | -8 | -3 | 3
CCSc1nnc(NC(NC(C)=O)(C(F)(F)F)C(F)(F)F)s1 | 2 | -18 | -0.4 | -3 | 1 | 5
Cc1cc(F)ccc1S(=O)(=O)NCC(c1ccc2c(c1)OCO2)N1CCOCC1 (stereo not given) | -1 | -8 | 0.1 | 1 | 7 | -23
CS(=O)(=O)Nc1ccccc1C(=O)Nc1cccc(Cl)c1 | 15 | -16 | 0.0 | ? | 2 | 5
CC1=NNC(=O)C1CCC(=O)N/N=C(/C)c1ccc([N+](=O)[O-])cc1 (stereo not given) | -10 | 13 | -0.2 | 8 | 4 | -10
Oc1cccc2cc3cccc(O)c3c(O)c12 | -9 | 10 | -0.6 | 3 | 1 | -23
CCOC(=O)c1[nH]c2ccc(F)cc2c1NC(=O)c1cc(OC)c(OC)c(OC)c1 | 32 | -5 | -0.9 | -17 | -7 | -3
Cc1ccc(SCC(=O)NCC(C)C)cc1 | 5 | 4 | -1.2 | -16 | 2 | 6
NS(=O)(=O)c1ccc(CCNC(=O)C2COc3ccccc3O2)cc1 (stereo not given) | -12 | -2 | -0.4 | -8 | -1 | 16
O=C(O)c1ccc2c(=O)n(-c3ccc(F)c(Cl)c3)c(=S)[nH]c2c1 | -4 | -5 | 0.8 | -6 | 6 | 5
NS(=O)(=O)c1ccccc1NC(=S)Nc1ccccc1S(N)(=O)=O | -4 | 0 | 0.5 | 11 | 8 | .
COc1ccccc1CNC(=O)c1ccc(Cl)c(NC2=NC3CS(=O)(=O)CC3S2)c1 (stereo not given) | -6 | -1 | -0.2 | -8 | 1 | 4
Cn1c(COc2ccccc2)nnc1SCC(=O)Nc1ccc(N2CCOCC2)c(Cl)c1 | -17 | 1 | 0.6 | 9 | 2 | -2
CCOC(=O)Cn1nc(C)c(NC(=O)c2cccc([N+](=O)[O-])c2)c1C | -10 | -1 | 0.1 | -22 | 0 | -2
C(=N\N=C\c1ccncc1)/c1ccncc1 | -20 | -3 | 0.0 | -20 | 3 | 3
C[C@H](N)c1nnc(SCC(=O)c2ccc(Cl)cc2)o1 | 29 | 10 | 0.6 | 0 | -9 | -12
O=C(C[n+]1cc(Br)cc2ccccc21)c1ccc(F)cc1 | 7 | -12 | 2.7&10 | 2 | -1 | .

Part of the list above, tab-delimited:
SMILES	TRPML1 inh	D2 PAM	TRPML1 agonist	TRPV1 potentiator	Six1-Eya2 inh	CtBP-E1A inh
CC1=NNC(=O)C1CCC(=O)N/N=C(/C)c1ccc([N+](=O)[O-])cc1 (stereo not given)	-10	13	-0.2	8	4	-10
Oc1cccc2cc3cccc(O)c3c(O)c12	-9	10	-0.6	3	1	-23
CCOC(=O)c1[nH]c2ccc(F)cc2c1NC(=O)c1cc(OC)c(OC)c(OC)c1	32	-5	-0.9	-17	-7	-3
Cc1ccc(SCC(=O)NCC(C)C)cc1	5	4	-1.2	-16	2	6

Later entries:
SMILES | TRPML1 inh | D2 PAM | TRPML1 agonist | TRPV1 potentiator | Six1-Eya2 inh | CtBP-E1A inh
COc1ccc2ccccc2c1/C=N/NC(=O)CC1(C)OCCCO1 | 3 | -26 | 1.1 | ? | -9 | -8
O=C(c1ccc2c(=O)n3c(nc2c1)CCCCC3)N1CCN(C(c2ccccc2)c2ccccc2)CC1 | -4 | -23 | 0.5 | 3 | -1 | 10
CCCCCC1CCC(C(=O)NCCN2CCOCC2)CC1 (stereo not given) | 7 | -7 | -1.0 | -7 | 4 | 7
CCN(CC)CCNc1ccc(CO)c2oc3ccccc3c(=O)c12 | 21 | -16 | 1.0 | . | ? | 5
CCN(CC)c1ccc(N)cc1S(=O)(=O)Nc1ccccc1OC | 10 | 1 | -0.2 | -22 | -6 | -7
CCCn1c(SCC(=O)c2c(N)n(C3CC3)c(=O)[nH]c2=O)nc2cc(S(N)(=O)=O)ccc21 | -14 | -1 | -1.3 | -9 | -6 | .
O=C(CSc1nncs1)N1c2ccccc2Sc2ccccc21 | 6 | -12 | 1.3 | 13 | -5 | -6
Cc1ccccc1OCCSCc1nc2ccccc2[nH]1 | 49 | -23 | 3.0 | -19 | 6 | -11

Screening results (PubChem BioAssay)

Rows were taken by chance (roughly 0.95% active in at least one column).
